Bioassay records: PubChem BioAssay, Broad Institute
Hedgehog inh – Sonic Hedgehog pathway inhibition. Shh-LIGHT2 Gli-luciferase reporter, 30 h. inhibition, % (concentration not given with the values). 22,000 compounds, 2.1% hits. AID 2313;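 active means replicate mean of 65% or more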;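 further: pathway switched on by Shh-conditioned medium diluted 1 in 25 in low serum; 100 nL library stock added to about 40 µL; 0% = median of neutral wells and 100% = positive control level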
MITF inh – blocks MITF activity; inhibition, % (no concentration beside the values); 37,000 compounds, 0.28% hits; TRPM1 promoter luciferase, luminescence, 24 h;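 active means most replicates at 85% or more, or half of them and the mean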;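 further: human melanocyte line stably carrying TRPM1 promoter luciferase reporter; 0% = vehicle wells and 100% = a positive control; the first replicate is given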
YB-1 expr inh – YB-1 expression inhibition; 30,000 compounds, 0.37% hits; delta delta Cp (YB-1 minus CDIP) (concentration not given with the values); U2OS, qRT-PCR YB-1 vs CDIP delta delta Cp, 16 h; active compounds read high; zero = DMSO, each unit about twofold; AID 434959;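 active means delta delta Cp rounded down to an integer at or above 3, about 3 SD of DMSO wells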;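 further: higher means less YB-1 transcript or more CDIP transcript relative to DMSO; stock transfer was 100 nL into about 100 µL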
PD-1 reverse act – activators reversing PD-1 mediated T-cell inhibition; primary human CD4 T cells, PD-L1 beads, CellTiter-Glo 96 h; activation, % (test concentration not listed); 29,000 tested, under 10 active; AID 2316;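 active means replicate mean of 50% or more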;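 further: 0% = median vehicle wells and 100% = positive control; 100 nL library stock added to about 50 µL; numbers are from one replicate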
* = called active by the depositor; / = no result given. An excerpt; rates above refer to the full screens.

canonical_smiles	Hedgehog inh	MITF inh	YB-1 expr inh	PD-1 reverse act
Cc1ccc(OCC(=O)NC2CCS(=O)(=O)C2)cc1 (stereo not drawn)	-35	5	-0.45	0.1
C[C@H]1CN([C@@H](C)CO)C(=O)c2cc(N(C)C)ccc2O[C@@H]1CN(C)C(=O)Nc1ccc2c(c1)OCO2	/	-2	0.12	-0.5
C[C@@H]1CN([C@@H](C)CO)C(=O)Cc2cc(NC(=O)Nc3cccc4ccccc34)ccc2O[C@@H]1CN(C)Cc1ccncc1	15	-3	-0.25	-5.0
Cc1noc(C)c1NC(=O)Nc1ccc2c(c1)C(=O)N([C@H](C)CO)C[C@@H](C)[C@H](CN(C)Cc1ccc(Cl)c(Cl)c1)O2	12	-2	0.059	0.1
O=C(CSc1nnc(-c2ccc(Br)cc2)o1)Nc1ccc2ccccc2c1	/	-4	/	-2.2
Cc1noc(C)c1S(=O)(=O)Nc1ccc2c(c1)CC(=O)N([C@H](C)CO)C[C@@H](C)[C@@H](CN(C)C(=O)Nc1ccc3c(c1)OCO3)O2	2	11	-0.054	/
COC(=O)CCSc1nc2sc3c(c2c(=O)n1-c1cccc(C)c1)CC(C)(C)OC3	/	12	/	-1.4
CSc1cccc(NC(=O)CN(c2ccc3c(c2)OCCO3)S(C)(=O)=O)c1	/	-27	/	3.8
C[C@H]1CN([C@@H](C)CO)C(=O)Cc2cc(NS(=O)(=O)c3ccc(Cl)cc3)ccc2O[C@@H]1CN(C)S(C)(=O)=O	-27	12	-0.25	/
O=C(CCCN1C(=O)c2ccccc2C1=O)Nc1ccc(Br)cc1F	/	-1	/	2.4
O=C(C/C(=C1/CCc2ccccc2C1=O)c1ccccc1)c1ccccc1	103*	50	-0.68	-0.6
COc1ccc(NC(=O)Nc2cccc3c2O[C@@H](CN(C)S(=O)(=O)c2ccc(Cl)cc2)[C@@H](C)CN([C@@H](C)CO)C3=O)cc1	101*	-8	0.044	/
C[C@@H]1CN([C@H](C)CO)C(=O)Cc2cc(NC(=O)Cn3cnnn3)ccc2O[C@H]1CN(C)C(=O)Nc1ccc(F)cc1	/	-4	0.42	/
COc1ccc(NC(=O)N(C)C[C@@H]2Oc3c(NS(=O)(=O)c4ccc(Cl)cc4)cccc3C(=O)N([C@H](C)CO)C[C@@H]2C)cc1	18	19	0.023	-2.1
COc1ccc(S(=O)(=O)N(C)C[C@H]2Oc3ccc(NS(=O)(=O)c4ccc(F)cc4)cc3C(=O)N([C@@H](C)CO)C[C@@H]2C)cc1	2	-4	1.8	0.8
COc1ccc(S(=O)(=O)N(C)C[C@@H]2Oc3ccc(NC(=O)CCN4CCOCC4)cc3CC(=O)N([C@@H](C)CO)C[C@@H]2C)cc1	13	-8	-0.048	3.0
C=CCSc1nc(N)c(C(=O)Nc2ccccc2)cc1C(N)=O	14	10	0.42	2.8
C[C@@H]1CCCCO[C@H](CN(C)C(=O)Nc2ccc3c(c2)OCO3)[C@@H](C)CN([C@H](C)CO)C(=O)c2cc(NS(=O)(=O)c3ccccc3)ccc2O1	12	-24	0.34	0.9
C[C@@H]1CN([C@H](C)CO)C(=O)Cc2cc(NS(=O)(=O)c3ccc(Cl)cc3)ccc2O[C@@H]1CN(C)C(=O)Nc1ccc(C(F)(F)F)cc1	30	2	0.24	-3.4
COc1cccc2c1C(=O)c1ccc3c(c1C2=O)C(=O)CC(C)(O)C3 (stereo not drawn)	-59	-14	-0.32	-0.3
Cc1noc(C)c1S(=O)(=O)Nc1ccc2c(c1)C(=O)N([C@H](C)CO)C[C@H](C)[C@H](CN(C)C(=O)c1ccccc1)OCCCC[C@@H](C)O2	-28	17	-0.0046	-0.3
CNC[C@@H]1Oc2c(NC(=O)NC3CCCCC3)cccc2C(=O)N([C@@H](C)CO)C[C@@H]1C	-20	-7	0.19	0.4
C[C@@H]1CN([C@@H](C)CO)C(=O)c2cccc(NC(=O)CCCCCC(=O)Nc3ccccc3N)c2O[C@H]1CN(C)S(=O)(=O)c1ccc(F)cc1	/	-9	-0.88	1.1
Cc1ccc2c(c1)c1nnc(SCCN3CCOCC3)nc1n2Cc1ccccc1	/	3	/	-9.4
Cc1sc(NC(=O)c2ccccc2)c(C(=O)N2CCCCC2)c1C	-12	10	-0.5	-1.2
C[C@H](CO)N1C[C@H](C)[C@@H](CN(C)Cc2ccc(C(=O)O)cc2)Oc2c(NC(=O)Nc3ccccc3)cccc2C1=O	-20	-2	-0.062	/
CC(C)NC(=O)Nc1ccc2c(c1)C(=O)N([C@H](C)CO)C[C@H](C)[C@H](CN(C)C(=O)Nc1ccc(F)cc1)O2	-8	-4	0.29	-0.6
COc1ccc(NC(=O)CN(c2cc(Cl)cc(Cl)c2)S(C)(=O)=O)cc1OC	/	10	/	0.7
CCOC(=O)c1cnc(Nc2nc3ccccc3s2)nc1CSc1nnc(C)s1	/	-23	/	-0.2
C[C@H]1CN([C@@H](C)CO)C(=O)c2cc(NC(=O)Nc3ccc(F)cc3)ccc2O[C@H]1CN(C)Cc1ccc(C(=O)Nc2ccccc2N)cc1	/	8	-0.035	0.1
COc1ccccc1NC(=O)Cn1cncc1-c1ccc([N+](=O)[O-])cc1	/	10	/	-0.8
C[C@@H]1CN([C@H](C)CO)C(=O)c2cccc(NC(=O)c3cnccn3)c2O[C@H]1CN(C)CC1CC1	-40	-2	0.14	/
C[C@H]1CN([C@@H](C)CO)C(=O)c2cc(NC(=O)CCN3CCOCC3)ccc2O[C@H]1CN(C)S(=O)(=O)c1cccs1	-5	5	-0.038	/
O=[N+]([O-])c1cccc(-c2nn(-c3ccccc3)cc2CNCc2ccccc2)c1	/	-20	/	-9.1
Cc1cccc(-c2nnc(SCC(=O)Nc3cc([N+](=O)[O-])ccc3C)n2-c2ccccc2)c1	/	-1	/	0.8
C[C@@H]1CN([C@H](C)CO)C(=O)c2cc(NC(=O)CCC(F)(F)F)ccc2O[C@@H]1CN(C)S(C)(=O)=O	/	-12	0.065	-0.7
COC(=O)C1=CN(c2cccc(C(F)(F)F)c2)C=C(C(=O)OC)C1c1ccsc1	-5	14	0.088	-0.9
Cc1ccc(NC(=O)CN(c2ccc(F)c(Cl)c2)S(C)(=O)=O)cc1	/	-1	/	0.4
C[C@@H]1CN([C@@H](C)CO)C(=O)Cc2cc(NC(=O)CCC(F)(F)F)ccc2O[C@@H]1CN(C)C(=O)Nc1cccc2ccccc12	-5	-1	0.21	/
C[C@@H]1CN([C@@H](C)CO)C(=O)c2cc(NC(=O)Cc3ccccc3)ccc2O[C@H]1CN(C)C(=O)Nc1cccc2ccccc12	/	7	0.26	0.5
C[C@@H]1CN([C@H](C)CO)C(=O)Cc2cc(NC(=O)Nc3ccc4c(c3)OCO4)ccc2O[C@@H]1CN(C)C(=O)Nc1cccc2ccccc12	-17	5	0.51	-0.1
C/C(=C\Cc1c(O[C@@H]2O[C@H](CO)[C@@H](O)[C@H](O)[C@H]2O)ccc2ccc(=O)oc12)CO	9	/	0.17	/
C[C@H](CO)N1C[C@H](C)[C@@H](CN(C)S(=O)(=O)c2ccc(Cl)cc2)Oc2ccc(NC(=O)Cc3ccccc3)cc2C1=O	14	-2	0.15	-0.1
C[C@@H]1CN([C@H](C)CO)C(=O)c2cccc(NC(=O)c3ccncc3)c2O[C@H]1CN(C)Cc1ccc(Cl)c(Cl)c1	54	11	0.5	/
C[C@H]1CN([C@@H](C)CO)C(=O)Cc2cc(NC(=O)c3ccncc3)ccc2O[C@@H]1CN(C)C(=O)Nc1cccc2ccccc12	/	10	-0.33	0.5
COCCNC(=O)c1ccccc1-c1nc(-c2ccc(Cl)cc2)no1	/	-24	/	1.5
c1ccc2[nH]c(NCCN3CCOCC3)nc2c1	/	-3	/	0.1
C[C@H]1CN([C@@H](C)CO)C(=O)c2cc(NC(=O)CCCN(C)C)ccc2O[C@@H]1CN(C)C(=O)Nc1cccc2ccccc12	-9	10	-0.068	0.3
Cc1noc(C)c1NC(=O)N(C)C[C@H]1Oc2ccc(NC(=O)Nc3ccc(F)cc3)cc2C(=O)N([C@H](C)CO)C[C@@H]1C	-20	-9	0.24	1.2
COc1cc(C2NC(=S)NC(C)=C2C(=O)Nc2ccccc2C)c(Br)cc1OCC(=O)O (stereo not drawn)	/	2	/	-0.3

(listing goes on)
canonical_smiles	Hedgehog inh	MITF inh	YB-1 expr inh	PD-1 reverse act
COc1cccc2cc(C(=O)C3C(=O)C(=O)N(CCN4CCOCC4)C3c3ccc(F)cc3)oc12 (stereo not drawn)	/	4	/	-0.4
Cc1noc(C)c1NC(=O)Nc1ccc2c(c1)C(=O)N([C@@H](C)CO)C[C@@H](C)[C@H](CN(C)C(=O)NC(C)C)O2	/	-6	-0.1	1.8
COc1ccc(S(=O)(=O)N(C)C[C@@H]2Oc3ccc(NC(=O)Nc4ccc(F)cc4)cc3CC(=O)N([C@H](C)CO)C[C@@H]2C)cc1	/	10	-0.57	/
CCOC(=O)c1c(NC(=O)CSc2nnc3ccc4ccccc4n23)sc(C)c1C	/	15	/	1.7
Cc1nnsc1C(=O)OCCN(C)c1ccc(C#N)cn1	2	9	-0.46	1.8
C[C@H]1CN([C@@H](C)CO)C(=O)Cc2cc(NS(=O)(=O)c3ccc(F)cc3)ccc2O[C@@H]1CN(C)C(=O)Nc1ccc(F)cc1	11	-8	0.27	0.8
COc1ccc(S(=O)(=O)N(C)C[C@H]2OCCCC[C@@H](C)Oc3ccc(NC(=O)C4CCCCC4)cc3C(=O)N([C@H](C)CO)C[C@@H]2C)cc1	/	19	-0.52	/
C[C@@H]1CCCCO[C@H](CN(C)Cc2ccc(Cl)c(Cl)c2)[C@@H](C)CN([C@H](C)CO)C(=O)c2cc(NS(=O)(=O)c3cn(C)cn3)ccc2O1	-46	-6	/	/
C[C@@H]1CN([C@H](C)CO)C(=O)c2cccc(NC(=O)Nc3ccccc3)c2O[C@@H]1CN(C)S(C)(=O)=O	-30	-5	0.12	2.4
CCNC(=O)c1c(NC(=O)C(C)Oc2ccccc2F)sc2c1CCCC2 (stereo not drawn)	/	-11	/	2.1

Some of the entries above in a different format.
Values run as follows: Hedgehog inh | MITF inh | YB-1 expr inh | PD-1 reverse act
COc1cccc2cc(C(=O)C3C(=O)C(=O)N(CCN4CCOCC4)C3c3ccc(F)cc3)oc12 (stereo not drawn)
    / | 4 | / | -0.4
C[C@H]1CN([C@@H](C)CO)C(=O)Cc2cc(NS(=O)(=O)c3ccc(F)cc3)ccc2O[C@@H]1CN(C)C(=O)Nc1ccc(F)cc1
    11 | -8 | 0.27 | 0.8
Cc1noc(C)c1NC(=O)Nc1ccc2c(c1)C(=O)N([C@@H](C)CO)C[C@@H](C)[C@H](CN(C)C(=O)NC(C)C)O2
    / | -6 | -0.1 | 1.8
C[C@@H]1CN([C@H](C)CO)C(=O)c2cccc(NC(=O)Nc3ccccc3)c2O[C@@H]1CN(C)S(C)(=O)=O
    -30 | -5 | 0.12 | 2.4

Continued:
canonical_smiles	Hedgehog inh	MITF inh	YB-1 expr inh	PD-1 reverse act
C[C@H]1CN([C@@H](C)CO)C(=O)Cc2cc(NC(=O)CCN3CCOCC3)ccc2O[C@@H]1CN(C)Cc1ccc(C(=O)Nc2ccccc2N)cc1	/	-36	0.21	-1.1
COc1ccc(NC(=O)N(C)C[C@H]2Oc3ccc(NC(=O)c4ccncc4)cc3C(=O)N([C@@H](C)CO)C[C@H]2C)cc1	-36	-4	-0.16	-0.1
COc1ccc(S(=O)(=O)N(C)C[C@@H]2Oc3c(NC(=O)c4cnccn4)cccc3C(=O)N([C@H](C)CO)C[C@H]2C)cc1	4	-3	0.059	1.4
COc1ccc(NC(=O)N(C)C[C@H]2Oc3ccc(NC(=O)CCN4CCOCC4)cc3C(=O)N([C@@H](C)CO)C[C@@H]2C)cc1	-19	-2	0.25	1.3
C[C@H]1CN([C@@H](C)CO)C(=O)c2cc(NC(=O)CCCCCC(=O)Nc3ccccc3N)ccc2O[C@H]1CN(C)CC1CCCCC1	/	16	-0.13	-0.4
Cc1noc(C)c1NC(=O)Nc1ccc2c(c1)CC(=O)N([C@@H](C)CO)C[C@@H](C)[C@@H](CN(C)Cc1ccc3c(c1)OCO3)O2	53	-16	0.74	0.0
Cc1ccc(S(=O)(=O)N(C)C[C@H]2Oc3ccc(NS(=O)(=O)c4ccc(F)cc4)cc3C(=O)N([C@@H](C)CO)C[C@@H]2C)cc1	/	6	-0.83	-2.5
O=C(CSc1n[nH]c(-c2ccc(Cl)cc2Cl)n1)Nc1ccc(F)cc1	/	-19	/	-0.1
CC(C)Oc1ccc(NC(=O)CCN2C(=O)c3ccccc3C2=O)cc1	/	-73	/	1.5
C[C@@H]1CN([C@H](C)CO)C(=O)Cc2cc(NS(=O)(=O)c3ccccc3)ccc2O[C@@H]1CN(C)S(=O)(=O)c1cn(C)cn1	-3	-5	0.069	1.2
C[C@H]1CN([C@@H](C)CO)C(=O)c2cccc(NC(=O)C3CC3)c2O[C@H]1CN(C)Cc1ccc2c(c1)OCO2	-23	-3	0.025	2.1
CC(=O)O[C@]1(C(C)=O)CC[C@H]2[C@@H]3C=C(C)C4=CC(=O)CC[C@]4(C)[C@H]3CC[C@@]21C	35	-2	0.0022	-4.3
